Screening results as filed in PubChem.
RanGTP-Impb inh: disruptors of Ran-importin-beta complex formation – biochemical, FRET, CFP-Ran, YFP-importin-beta, homogeneous, primary screen. cell-free CFP-Ran/YFP-importin-beta FRET ratio. inhibition, % (concentration not given with the values). hit rate 1.1% among 300,000. AID 2216;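 active = most replicates above 15%; inconclusive = exactly half above 15%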;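 note: 0% = DMSO wells and 100% = Ran loaded with GDP instead of GTP; wells of about 40 µL received 100 nL stock; the first replicate is given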
ALR inh: inhibitors of human sulfhydryl oxidase ALR. inhibition, % (no concentration beside the values). purified ALR, DTT oxidation, H2O2 HRP-luminol luminescence. hit rate 3.8% among 290,000. P55789. AID 485317;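 active = mean and each replicate at 75% or more; inconclusive = only one of the two met; inactive = neither met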;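 note: stock transfer was 7.5 nL into about 7.5 µL; 0% = neutral wells and 100% = wells with inactivated enzyme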
Target sequence (P55789 whole entry, looked up): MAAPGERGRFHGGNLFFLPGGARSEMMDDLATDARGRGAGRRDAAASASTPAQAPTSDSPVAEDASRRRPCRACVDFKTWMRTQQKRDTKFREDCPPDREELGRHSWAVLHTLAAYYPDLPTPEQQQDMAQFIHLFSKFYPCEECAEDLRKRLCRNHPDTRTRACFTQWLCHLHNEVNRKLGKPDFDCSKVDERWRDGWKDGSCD
Vif A3G: inhibitors of Vif binding to APOBEC3G peptide, primary screen, biochemical, TR-FRET, GST-Vif 1-94, biotin-A3G peptide, dose response retest (AID 1117319) | TR-FRET GST-Vif / biotin-A3G peptide binding; higher % means a stronger effect; test concentration not given here; strong numbers were not always called active | inhibition, %; hits with a dose series show IC50 in µM | hit rate 0.57% among 260,000;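 active = above the screen mean plus three standard deviations and confirmed in dose response; inconclusive = results disagree or hit not tested in dose response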;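 note: Vif residues 1-94 fused to GST binding biotinylated APOBEC3G peptide 110-148; 0% = full assay without inhibitor and 100% = GST in place of GST-Vif; retest series ran down from 100 µM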
HNF4A DNA FP: change in binding of human HNF4 alpha to DNA; activity change, % at 10 µM; HNF4a-FITC DNA binding, fluorescence polarization, 1 h; hit rate 0.3% among 360,000; in the data active = activity change above about 30%, passing the limit was not always enough;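 note: controls were the assay level and a saturating level of protein; the project sought stronger binding though the title names inhibitors; some compounds called inactive have numbers as strong as hits; positive values seem to mean higher polarization but the record does not say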
Target sequence (P41235 whole entry, looked up): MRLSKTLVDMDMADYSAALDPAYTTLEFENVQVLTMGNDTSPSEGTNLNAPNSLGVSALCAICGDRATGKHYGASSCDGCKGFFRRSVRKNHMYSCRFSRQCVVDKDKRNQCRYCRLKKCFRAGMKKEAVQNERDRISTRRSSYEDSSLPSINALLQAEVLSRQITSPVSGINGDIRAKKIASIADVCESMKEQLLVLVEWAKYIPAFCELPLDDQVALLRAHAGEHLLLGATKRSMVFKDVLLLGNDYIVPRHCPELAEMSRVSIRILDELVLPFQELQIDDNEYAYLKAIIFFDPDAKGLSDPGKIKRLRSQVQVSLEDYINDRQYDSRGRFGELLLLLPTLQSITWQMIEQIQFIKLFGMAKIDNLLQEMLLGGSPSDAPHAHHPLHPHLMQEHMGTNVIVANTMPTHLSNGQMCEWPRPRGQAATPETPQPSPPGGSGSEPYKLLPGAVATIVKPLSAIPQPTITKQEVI
LANA-H2B inh: blocks KSHV LANA binding to histone H2A/H2B | cell-free LANA-H2A/H2B peptide, fluorescence polarization | inhibition, % (concentration not given with the values) | hit rate 0.6% among 320,000; in the data active = inhibition mostly above about 10%, no sharp cut-off; inactive = mostly below about 6.7%;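 note: stock transfer was 7.5 nL into about 10 µL; 0% = median of vehicle wells and 100% = median of positive control wells; one replicate is shown; the record names a cut of 25% in any replicate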
Calb FLC: C. albicans growth modulation with fluconazole | C. albicans CaCi-2 (fluconazole-resistant clinical isolate) + fluconazole, Alamar Blue growth, 48 h | growth inhibition, % (test concentration not listed) | hit rate 0.57% among 300,000 | AID 1979;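 active = most replicates above 75%; inconclusive = exactly half above 75%; inactive = most below 75%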;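 note: all wells also contain fluconazole at 8 µg/ml as a sub-toxic cotreatment; 0% = median of DMSO wells and 100% = median of geldanamycin control wells; wells of about 8 µL received 7.5 nL stock; the first replicate is given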
Beta2AR agonist: agonists of human beta-2 adrenergic receptor inducing internalization | P07550 | Am2.2-beta2AR cells, FAP receptor internalization, flow cytometry; reference of the scale not given here | response, % (concentration not given with the values) | hit rate 0.43% among 340,000;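 active = response above a set limit, near 3 SD of response in nonfluorescent compounds, cut at about 42% in these data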;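 note: stock transfer was 100 nL into about 11 µL; a reference agonist was the positive control; negative values mostly stem from fluorescent compounds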
Target sequence (P07550 whole entry, looked up): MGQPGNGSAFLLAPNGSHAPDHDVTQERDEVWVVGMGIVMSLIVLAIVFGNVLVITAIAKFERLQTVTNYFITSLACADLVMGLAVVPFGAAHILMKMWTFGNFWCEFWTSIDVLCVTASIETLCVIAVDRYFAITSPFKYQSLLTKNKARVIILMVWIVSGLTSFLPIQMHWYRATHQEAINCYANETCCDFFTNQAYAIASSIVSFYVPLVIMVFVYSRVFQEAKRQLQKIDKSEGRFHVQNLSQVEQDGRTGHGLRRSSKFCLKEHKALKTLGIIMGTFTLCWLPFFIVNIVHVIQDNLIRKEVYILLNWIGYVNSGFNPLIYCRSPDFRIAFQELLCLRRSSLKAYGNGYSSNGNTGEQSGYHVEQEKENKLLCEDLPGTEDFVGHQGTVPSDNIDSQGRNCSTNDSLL
* = called active by the depositor; ? = inconclusive; · = no result given; & = joins results of further samples.

SMILES | RanGTP-Impb inh | ALR inh | Vif A3G | HNF4A DNA FP | LANA-H2B inh | Calb FLC | Beta2AR agonist
O=[N+]([O-])c1cc(S(=O)(=O)Nc2ccccc2)ccc1N1CCN(c2ccccc2)CC1 | 2.6 | -4 | · | 0.2 | 1.5 | 1 | 17
Cn1ccnc1SCC(=O)c1ccc2ccccc2c1 | 2.3 | 99* | 1% | 9.7 | -1.4 | -6 | 0
COc1ccc(-c2nnc(SCC(=O)N3CCCc4ccccc43)o2)cc1OC | 6.6 | -4 | 4% | -1.4 | -1.7 | 0 | 17
Cc1cc(C(=O)OCC(=O)N(C)C2CCS(=O)(=O)C2)c(C)n1-c1ccccc1 (centres undefined) | -3.8 | -2 | -1% | -0.2 | -2.6 | -22 | -5
O=C1CC(Nc2ccccc2)C(=O)N1c1ccc(N2CCOCC2)cc1 (centres undefined) | · | -9 | 29% | 3.4 | -4.6 | · | 7
Cc1cn(C)c(=O)n(C)c1=O | -2.6 | -4 | · | 4.9 | -3.0 | -5 | 0
COc1ccc(-c2nc(C(F)(F)F)c(OC)o2)cc1OC | ? | -3 | · | -3.9 | -0.2 | 16 | -6
Cc1ccc(NC(=O)c2cc3ccccc3o2)cc1S(=O)(=O)N(C)C | · | · | -1% | -1.8 | · | · | -53
Cc1ccc(C(=O)Nc2nc(COc3ccccc3)cs2)s1 | -0.2 | -5 | 2% | 1.1 | -2.9 | -7 | 4
CCCCCn1c(CNC(=O)CCC)nc2ccccc21 | 5.3 | 16 | 0% | -1.9 | -5.5 | -8 | -3
N#CC1(NC(=O)COc2cc(F)ccc2[N+](=O)[O-])CCCCC1 | · | -4 | -4% | 4.4 | 0.0 | · | -5
O=C(/C=C/c1ccc(O)cc1)c1ccc(NC2=C(N3CCCCC3)C(=O)c3ccccc3C2=O)cc1 | -1.3 | 10 | 23% | 4.7 | 0.7 | 46 | 20
CC1CCN(C(=O)CSc2nnc3c(n2)[nH]c2ccccc23)CC1 | 3.2 | -1 | -10% | 2.5 | -4.2 | -3 | -18
O=c1n(Cc2ccccc2Cl)c2sc3c(c2c2ncnn12)CCCC3 | · | · | -2% | 0.1 | · | · | 10
Cc1c(Cl)cccc1NC(=O)c1cc(-c2ccco2)on1 | 0.9 | · | · | 2.7 | -0.9 | 0 | -3
COc1cc(/C=N/NC(=O)NC23CC4CC(CC(C4)C2)C3)ccc1O | 0.0 | 95* | -5% | 0.7 | 2.9 | -4 | 17
CCc1nc(NCCc2ccccn2)c2nnn(Cc3ccccc3F)c2n1 | -2.1 | -17 | 4% | 2.1 | -7.9 | 0 | -11
CC(C)NC(=O)CC(c1ccccc1)c1cc(Br)ccc1O (centres undefined) | -4.0 | 7 | -2% | 3.5 | 1.7 | 24 | 0
NS(=O)(=O)c1ccc(CCNC(=O)COC(=O)CCc2ccccc2)cc1 | -2.0 | 0 | · | -1.2 | 6.0 | -5 | -2
CCN(c1cccc2ccccc12)S(=O)(=O)c1ccc(Cl)nc1 | -1.4 | -28 | 15% | 2.9 | -0.5 | 19 | -9
CCN(CC)CCOc1ncnc2c1oc1ccccc12 | -1.4 | -7 | 9% | -5.0 | 2.7 | -4 | 5
CCn1c(Cc2ccccc2)nnc1SCc1ccc([N+](=O)[O-])cc1 | ? | -11 | · | 14 | -1.2 | -7 | -5
COc1cccc(/C=N/Nc2cc(-n3nc(C)cc3-c3ccccc3)ncn2)c1O | 2.1 | 1 | 31% | 0.0 | -5.8 | 82* | 7
CCOC(=O)c1[nH]c2ccccc2c1NC(=O)c1ccc(S(=O)(=O)N(C)C)cc1 | -1.7 | -12 | 29% | 0.8 | 2.0 | 1 | 3
CCOC(=O)c1cnc(Nc2nc3ccccc3o2)nc1CSC(=S)N1CCCCC1 | ? | 14 | · | 4.9 | 4.2 | -6 | -8
COc1ccc(C(=O)NC2CC2)cc1OC1CCN(Cc2cnn(C)c2)CC1 | 2.4 | -2 | · | -2.9 | 2.5 | 4 | -7
CCOc1ccccc1C(=O)N1CCC(n2nnc3cc(C(F)(F)F)ccc32)CC1 | 3.0 | · | 4% | 1.4 | -0.7 | -5 | -13
O=C(OCc1cccc([N+](=O)[O-])c1)c1ccc[nH]c1=O | 1.7 | -2 | · | 0.7 | -0.4 | 8 | 7
CN(C)c1ccc(/C=N/N=C(N)N)cc1[N+](=O)[O-] | 0.0 | 27 | 22% | -3.0 | 6.2 | -20 | -9
O=c1c2ccccc2c(/C=N/n2cnnc2)c(O)n1-c1ccccc1F | 2.4 | ? | 11% | 1.5 | 2.9 | -7 | -5
COc1ccc(CNC(=O)c2c(N)n(CCCN3CCOCC3)c3nc4ccccc4nc23)cc1 | 97* | -3 | 3%&2% | -4.0 | -4.6 | 8 | 3
CCOc1cc(NC(=S)NCC2CCCO2)c(OCC)cc1NC(=O)c1ccccc1 (centres undefined) | -3.1 | -18 | -5% | 0.4 | 3.2 | 7 | -15
CC(=O)c1ccc(OCc2cc([N+](=O)[O-])cc3c2OCOC3)cc1 | 0.4 | -3 | -1% | -0.7 | -0.8 | 4 | 2
CCOC(=O)CNC(=O)CSc1nnc(-c2cccc(OC)c2)n1CC | 4.9 | -4 | -3% | 1.7 | -4.6 | 1 | -1
COCc1nnc(NC(=O)CCCOc2ccccc2OC)s1 | 2.9 | · | 27% | 1.6 | 5.8 | 5 | 2
CCCCCc1c(O)nc(SCCN2CCOCC2)[nH]c1=O | 0.3 | 34 | 8% | -1.7 | -0.2 | 26 | 1
Cn1nnnc1SCc1cccc2ccccc12 | -0.3 | -4 | -3% | 2.0 | -6.0 | 34 | -5
COc1ccc(N2CCN(C(=O)CNC(=O)Cc3ccc(Cl)cc3)CC2)cc1 | 0.9 | 2 | -3% | -0.9 | -1.6 | -6 | -8
O=C(NCCCNC(=O)c1ccccc1F)c1ccco1 | 3.8 | -12 | · | -1.6 | 2.8 | 1 | -2
O=C(NCc1nc2ccccc2[nH]1)c1c(F)c(F)c(F)c(F)c1F | 4.6 | 11 | -4% | 2.6 | -5.1 | 4 | -8
C=CCn1c(SCC(=O)c2[nH]c(C)c(C(=O)OC)c2C)nc2scc(-c3ccc(OC)c(OC)c3)c2c1=O | -1.3 | · | · | -1.6 | 0.8 | -10 | 13
CCOc1cc(/C=N/NS(=O)(=O)c2ccc(OC)cc2)ccc1OCCN1CCOCC1 | 0.3 | 22 | · | -4.7 | -1.8 | 2 | 6
O=C(CSc1nc2ccccc2n1Cc1ccccc1)N/N=C/c1ccccc1C(=O)O | 0.2 | 3 | -4% | 6.1 | -1.4 | 0 | -6
COc1ccc(C)cc1S(=O)(=O)Nc1ccc(F)cc1 | -0.9 | -18 | 7% | -1.0 | -1.0 | -4 | 5
CCCNS(=O)(=O)c1ccc(CCC(=O)N2CCCC2)cc1 | 2.0 | -4 | · | -6.5 | -5.3 | -13 | 8
C=CCNC(=O)c1cnc2n(c1=O)CCS2 | -4.0 | -3 | 12% | 1.6 | 2.1 | 3 | 1
O=c1c2ccccc2oc2ccc(NCCCN3CCOCC3)cc12 | -12 | 6 | · | 1.2 | -1.5 | -27 | 0
Cc1ccc(S(=O)(=O)CCC(=O)Nc2nc3c(s2)CCCC3)cc1 | -2.1 | 2 | 25% | -2.5 | 6.6 | -1 | 2
CC1CCN(c2oc(-c3ccco3)nc2S(=O)(=O)c2ccccc2)CC1 | -0.5 | 8 | · | 1.7 | -0.3 | 0 | 4
CCCCN1C=C(C(=O)OC)C(c2ccccc2C(F)(F)F)C(C(=O)OC)=C1 | 94* | -3 | -6% | 1.5 | -4.7 | 12 | 0
COc1cc(C(=O)N/N=C/c2sccc2C)cc(OC)c1OC | 1.7 | · | -1% | 3.0 | · | 4 | 11
COc1cccc(/C=N/Nc2nccnc2Cl)c1O | -3.8 | · | 14% | 2.3 | · | 106* | -1
CCCCn1c(SCC(=O)N2CCN(c3ccccc3)CC2)nc2ccsc2c1=O | -0.6 | -6 | 21% | -4.5 | -0.9 | 10 | -1
COc1ccc(C(c2nnnn2Cc2ccccc2)N2CCN(c3nc4ccccc4s3)CC2)cc1 (centres undefined) | 3.9 | 4 | 7% | 0.8 | -1.5 | -2 | 6
O=c1ccc(Oc2nc(N3CCCCC3)nc(N3CCCCC3)n2)n[nH]1 | -1.8 | · | 2% | 1.2 | 0.3 | 7 | -28
Nc1nc2c(ccc3ccccc32)s1 | 9.9 | 33 | · | -0.7 | 0.2 | -5 | -2
N#C/C=C1/NC(=O)c2ccccc2S1 | 7.3 | 56 | 9% | 3.6 | 1.5 | -5 | 2
COc1cc(NC(C)CCc2ccccc2)cc(OC)c1OC (centres undefined) | -1.1 | 88* | · | -0.8 | 3.0 | 8 | 9
CSc1ccc(-c2nc3cnccn3c2Nc2ccc3c(c2)OCO3)cc1 | 9.1 | 100* | 15% | 3.2 | -1.9 | -1 | 3
Cc1cccc(N(Cc2cc3cc(C)ccc3[nH]c2=O)C(=O)c2cccs2)c1 | -1.7 | -3 | -19% | 1.9 | -3.1 | -2 | 3
The listing continues.
SMILES | RanGTP-Impb inh | ALR inh | Vif A3G | HNF4A DNA FP | LANA-H2B inh | Calb FLC | Beta2AR agonist
Cc1ccc(N(C(=O)CCCC(=O)Nc2ccccn2)C(C(=O)NC2CCCC2)c2ccc(O)cc2)cc1C (centres undefined) | 1.1 | 2 | · | -0.1 | -0.9 | 1 | 2
CCOC(=O)c1c(COc2ccccc2)oc2ccc(O)cc12 | -0.5 | 10 | 13% | · | -3.7 | · | ·
Nc1nc(-c2ccccc2)nc2sc3c(c12)CCCC3 | -0.8 | · | 5% | -2.8 | 3.1 | -24 | -7
Cc1nn(-c2cccc(Cl)c2)c2nc(C(F)(F)F)[nH]c(=O)c12 | 0.3 | -4 | ? | 0.4 | -3.7 | 30 | 6
O=C(NCCNc1ccccc1[N+](=O)[O-])c1ccccc1F | 6.3 | 4 | · | -1.6 | 8.6 | 11 | 8
CC(C)C(NC(=O)c1c(F)cccc1F)C(=O)N1CCN(S(=O)(=O)c2ccc(F)cc2)CC1 (centres undefined) | · | · | · | -1.7 | 2.7 | · | 5
Cc1ccc2cc3cc(C(=O)NC4CCCCC4)oc3nc2c1 | 1.5 | -6 | · | -2.3 | 4.6 | 28 | 10
O=C(Nc1ccc2c(c1)OCCO2)c1ccc(Cl)c(S(=O)(=O)N2CCCCC2)c1 | 0.1 | -11 | -7% | -2.3 | 0.4 | 31 | 4
O=C(NC1CCCCC1)C(c1cccnc1)N(C(=O)c1csnn1)c1ccc(F)cc1 (centres undefined) | 3.4 | -2 | · | 1.3 | -0.9 | -1 | 7
Cc1ccccc1NC(=O)COC(=O)c1ccc2nc(C)c(C)nc2c1 | · | -7 | -12% | -3.4 | -318 | · | -11
CCCCn1c(CNC(=O)C23CC4CC(CC(C4)C2)C3)nnc1SCC(=O)Nc1nnc(C)s1 | 7.6 | -25 | 0% | -0.2 | 4.6 | 6 | -2
O=[N+]([O-])c1cccc(/C=C/c2ccccn2)c1 | -0.7 | 36 | ? | 3.3 | 4.0 | 19 | 12
Cc1cc2ccccc2n2c(SCC(=O)NCc3cccs3)nnc12 | -9.6 | -10 | 7% | 0.1 | -14 | 3 | -23
O=C(Cc1cn2ccsc2n1)Nc1ccccn1 | -0.6 | -3 | 22% | 1.5 | -3.4 | 0 | 9
C=CCN(Cc1cccc(OC)c1OC)C(=O)Oc1ccccc1 | · | · | -2% | -2.8 | -2.4 | · | -4
O=c1ccc2c(-c3ccccc3S(=O)(=O)O)c3ccc(O)c(O)c3oc-2c1O | · | · | 0.34µM* | -63 | -1.2 | · | -3

An excerpt from above, reduced to ALR inh, HNF4A DNA FP and Vif A3G.
Compound,ALR inh,HNF4A DNA FP,Vif A3G
C=CCN(Cc1cccc(OC)c1OC)C(=O)Oc1ccccc1,·,-2.8,-2%
O=c1ccc2c(-c3ccccc3S(=O)(=O)O)c3ccc(O)c(O)c3oc-2c1O,·,-63,0.34µM*
